# 2A StopGo = lowers the luciferase signal of an FMDV 2A StopGo reporter; actives 1.2% (n = 410,000); Potency, µM (top dose mostly 57.9 µM), for the others: at the top dose signal change, negative = less light; human cells with a luciferase reporter of 2A StopGo recoding; control for the full effect not named in the record; active = well fitted falling curve with a large enough effect; inconclusive = small, poorly fitted or top-dose-only effect; inactive = no such curve, though single readings can be large or run the other way; tested in HEK293T cells; note: nearly all actives have a fitted effect of over 45% in size; luciferase light after 4 h
# RE007 growth inh = less growth of the S. pombe RE007 Vpr strain. S. pombe RE007 Vpr strain, BacTiter-Glo ATP luminescence, 24 h; control for the full effect not named in the record. Potency, µM (top dose mostly 92.2 µM), for the others: at the highest dose activity change, negative = less growth. actives 0.21% (n = 360,000). AID 651644; active = well fitted falling curve with a large enough effect; inconclusive = small, poorly fitted or top-dose-only effect; inactive = no such curve, though single readings can be large or run the other way;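 note: nearly all actives have a fitted effect of over 50% in size; the assay follows cell death caused by Vpr and the record does not say whether a fall means rescue or toxicity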
#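 Fission yeast RE007 carrying one integrated HIV-1 vpr copy, seeded at OD 0.01 in PMG+AL medium with 23 nL pinned compound. Grown 24 h at 30 degrees; viability read by BacTiter-Glo luminescence after 5 min.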
# Lassa entry inh = Lassa virus entry inhibition; Lassa virus pseudotype entry inhibition, cell reporter; control for the full effect not named in the record; Potency, µM (series often up to 37.9 µM), for inactives: at the highest dose activity change, negative = inhibition, actives largely listed as inhibitors; actives 1.2% (n = 300,000); active means well fitted inhibition curve with a large enough effect; inconclusive means small, poorly fitted or top-dose-only effect, or effect the other way; inactive means flat fitted curve, though single readings scatter; tested in HEK293 cells; note: nearly all actives have a fitted effect of over 50% in size; luciferase read-out
# MARV entry inh = inhibitors of Marburg virus binding or cell entry. Marburg virus pseudotyped entry inhibition, cell reporter; control for the full effect not named in the record; about a third of the inactives were read at about 46 µM. Potency, µM (highest dose often 37.8 µM), for inactives: at the top dose activity change, negative = inhibition, actives largely listed as inhibitors. actives 1.8% (n = 300,000); active = well fitted inhibition curve with a large enough effect; inconclusive = small, poorly fitted or top-dose-only effect, or effect the other way; inactive = flat fitted curve, though single readings scatter; tested in HEK293 cells; about a fifth of its hits are not listed in these tables; note: luciferase read-out
# * marks the source's active call; other numbers are inactive results; ? = inconclusive; nt = no result given; [ ] = another dose, or the depositor's remark. % is set by controls: 0 for no effect and ±100 for the full control effect; potency is the fitted concentration of half-maximal effect. Only part of the results is shown; rates above refer to the full screens.
Compound	Lassa entry inh	MARV entry inh	2A StopGo	RE007 growth inh
CCN(CC)C(=O)Cn1ncc2c([nH]c3ccccc32)c1=O	12.4%[46.1 µM]	nt	-17.5%	nt
COc1ccccc1CC(=O)Nc1ccc2nc(Nc3cccc(Cl)c3)cc(C)c2c1	3.16µM*	nt	-19.7%	nt
CCCn1cc(S(=O)(=O)c2ccccc2)c(=O)c2cc(F)c(N3CCCCCC3)cc21	?	nt	0.0%	nt
COc1ccc(NC(=O)Cn2cnc3c(nc4n3CCCCC4)c2=O)cc1Cl	-0.9%[46.1 µM]	nt	-12.5%	nt
COC(=O)CCNC(=O)NC(CCC(C)C)c1c(-n2cccc2)sc2c1CCN(C)C2 (stereo not drawn)	?	nt	0.9%	nt
Cc1c(Cl)cccc1NC(=O)C1CCN(c2ncnc3c2nc2n3CCCCC2)CC1	22.3%[46.1 µM]	nt	6.7%	nt
COc1ccc(CC(=O)Nc2ccc3nc(Nc4cccc(Cl)c4)cc(C)c3c2)cc1	?	nt	-19.1%	nt
Cc1ccc(S(=O)(=O)c2cnc(SCC(=O)Nc3cc(C)cc(C)c3)nc2N)cc1	?	nt	?	nt
O=C(NC1CCCCC1)c1ccc(CSc2nc3cccnc3n2Cc2ccc(F)cc2)cc1	2.9%[46.1 µM]	nt	?	nt
CCS(=O)(=O)N1CC(=O)N(c2cccc(C)c2C)C(C)(C(=O)NC2CCCCCC2)C1 (stereo not drawn)	3.1%[46.1 µM]	nt	7.7%	nt
Cc1ccc(C)c(NC(=O)c2ccc(CN3CC(=O)N4CCCCC4C3=O)cc2)c1 (stereo not drawn)	17.0%[46.1 µM]	nt	-13.9%	nt
O=C(Cn1ncc2c([nH]c3ccccc32)c1=O)NCCCN1CCN(c2ccc(F)cc2)CC1	4.9%[46.1 µM]	nt	?	nt
COc1cc(Cl)c(C)cc1NC(=O)Cn1ncc2c([nH]c3ccccc32)c1=O	18.5%[46.1 µM]	nt	1.0%	nt
COc1cc(NC(=O)CN2Cc3ccccc3C2=O)cc(OC)c1OC	-12.2%[46.1 µM]	nt	-16.5%	nt
Cc1ccccc1CNC(=O)c1ccc(CSc2nc3cccnc3n2Cc2ccccc2)cc1	-20.0%[46.1 µM]	nt	-27.4%	nt
CCOc1ccccc1CNC(=O)c1ccc(-n2c(C)cc3c2CCC(C)C3)cc1 (stereo not drawn)	?	nt	-17.1%	nt
CC1=C(C(=O)NCc2cccc(F)c2)C2(CCCCCC2)OC1=O	-4.2%[46.1 µM]	nt	-0.2%	nt
CN(C)c1ccc(NC(=O)Cn2c(SCc3ccccc3F)nc3cccnc32)cc1	24.2%[46.1 µM]	nt	16.8%	nt
CCOC(=O)C1=C(CN2CCN(C)CC2)NC(=O)NC1c1ccc(F)cc1 (stereo not drawn)	?	nt	-12.7%	nt
CCN(CC)CCN(C(=O)c1ccco1)c1nc2c(C)c(C)ccc2s1	11.1%[46.1 µM]	nt	-21.8%	nt
Cc1cc2c(cc1S(=O)(=O)NCc1ccc(F)cc1)n(C)c(=O)c(=O)n2C	11.1%[46.1 µM]	nt	24.9%	nt
COc1ccccc1CNC(=O)COCc1cc(-c2cccs2)on1	11.0%[46.1 µM]	nt	-5.2%	nt
CCCN(CCC)C(=O)C1CCN(c2ncnc3c2nc2n3CCCCC2)CC1	-0.6%[46.1 µM]	nt	-8.4%	nt
Cc1ccc(C)c(NC(=O)C(c2ccccc2)N2Cc3ccccc3C2=O)c1 (stereo not drawn)	-0.1%[46.1 µM]	nt	14.4%	nt
CCCCn1cc(S(=O)(=O)c2ccc(Cl)cc2)c(=O)c2cc(F)c(N3CCCC(C)C3)cc21 (stereo not drawn)	26.9%[46.1 µM]	nt	-6.3%	nt
CC1=C(C(=O)NCc2ccccc2Cl)C2(CCCCCC2)OC1=O	-1.9%[46.1 µM]	nt	-4.0%	nt
COc1ccc(OC)c(CCNC(=O)c2nc(-c3ccc(Cl)cc3)n3c2CCCCC3)c1	-7.1%[46.1 µM]	nt	?	nt
COc1ccc(CNC(=O)COCc2cc(-c3ccc4c(c3)OCO4)on2)cc1	-0.3%[46.1 µM]	nt	-8.1%	nt
COc1ccc(Cl)cc1NC(=O)C(C)N1Cc2ccccc2C1=O (stereo not drawn)	4.2%[46.1 µM]	nt	-12.2%	nt
COc1ccc(S(=O)(=O)c2cn(C)c3cc(N4CCCCC4)c(F)cc3c2=O)cc1	-1.0%[46.1 µM]	nt	-25.2%	nt
O=C(CN1Cc2ccccc2C1=O)Nc1cc(F)ccc1F	14.6%[46.1 µM]	nt	11.6%	nt
COc1ccc(NC(=O)c2cn3c4c(ccc(Cl)c4c2=O)OC(C)C3)cc1OC (stereo not drawn)	-1.1%[46.1 µM]	nt	-14.7%	nt
Cc1cc(C)cc(NC(=O)COCc2cc(-c3ccc4c(c3)OCO4)on2)c1	-1.2%[46.1 µM]	nt	-14.6%	nt
CO[C@H]1C=CO[C@@]2(C)Oc3c(C)c(O)c4c(O)c(c(/C=N/N5CCN(C)CC5)c(O)c4c3C2=O)NC(=O)/C(C)=C\C=C[C@H](C)[C@H](O)[C@@H](C)[C@@H](O)[C@@H](C)[C@H](OC(C)=O)[C@@H]1C	nt	?	-20.7%	nt
Cc1cccc(C(=O)NCc2nnc(SCC(=O)N3CCN(c4ccccc4)CC3)n2C)c1	0.5%	-12.5%	nt	3.7%
CCCC(=O)N1CCc2cc(OC)c(OC)cc2C1c1cc2cc3c(cc2[nH]c1=O)OCO3 (stereo not drawn)	-19.4%	?	nt	6.2%
CC1(C)CC(=O)C(C=Nc2ccncc2)=C(O)C1	2.3%	10.1%	nt	5.8%
Cc1nc2sc(C(c3ccco3)N3CCc4ccccc4C3)c(O)n2n1 (stereo not drawn)	1.3%	-0.1%	nt	-2.9%
Cc1c(C=O)cnn1CCC(=O)O	-4.3%	11.6%	nt	15.0%
O=C(NCCCO)C12CC3CC(CC(C3)C1)C2	7.7%	22.0%	nt	5.1%
O=C1c2ccccc2C(=O)N1Cc1cc(-c2ccc(Cl)cc2)no1	0.9%	20.2%	nt	11.8%
COc1ccc(Cl)cc1N=Cc1c(O)cc(C)oc1=O	2.2%	28.1%	nt	-15.4%
CCc1ccc(NC(=O)CSC2=C(C#N)C(c3ccc4c(c3)OCO4)CC(=O)N2)cc1 (stereo not drawn)	0.0%	-2.5%	nt	-17.8%
COc1ccc(NC(=O)Nc2cccc(OC)c2)cc1	?	17.5%	nt	-5.6%
Cc1ccc(S(=O)(=O)N[C@@H](C)CO)cc1	nt	nt	-5.4%	4.9%
CCC[C@@H]1CCCO[C@@](C(=O)NCCN2CCOCC2)(C(F)(F)F)C1	nt	nt	-10.2%	-11.2%
COC(=O)c1ccc2nc(-c3ccc(F)cc3)c(Cc3ccc(C)cc3)n2c1	nt	nt	21.1%	-12.3%
C[C@@H](NC(=O)[C@@H]1CCCN1C(=O)[C@@H]1CCCN1C(=O)c1cccc(Cl)c1)c1ccccc1	nt	nt	-13.2%	-0.2%
CN(C(=O)c1cccc(NC(=O)Cc2ccc(NC(=O)C3CCCN(C(=O)C4CCCC4)C3)cc2)c1)C1CCCCC1 (stereo not drawn)	nt	nt	?	-5.7%
Cc1cc(NC(=O)c2ccc3sc([C@@H]4O[C@H](CO)[C@H](O)[C@H](O)[C@H]4O)nc3c2)n(C)n1	nt	nt	-4.1%	15.0%[18.4 µM]

# (list continues)
Compound	Lassa entry inh	MARV entry inh	2A StopGo	RE007 growth inh
CCC(C(=O)NC(C)(C)C)n1c(-c2ccc3c(c2)OCO3)nc2ccccc21 (stereo not drawn)	nt	nt	-4.1%	-7.4%
Fc1ccc(-c2nc3ccc(Cl)cn3c2Cc2cccc(F)c2)cc1	nt	nt	-4.9%	-0.4%
COCCc1ccc(OC2(C)CCN(Cc3cccn3-c3nccs3)C2)cc1 (stereo not drawn)	nt	nt	-13.4%	-24.4%
COc1ccccc1-c1cnc(C(O)c2ccc(C)cc2C)[nH]1 (stereo not drawn)	nt	nt	-6.3%	?
CCC(=O)N1CCC1(C)C(=O)Nc1cc(-c2ccccc2)nn1C (stereo not drawn)	nt	nt	29.9%	-21.2%[18.4 µM]
CCOC1=C2CN(S(=O)(=O)c3ccc(C)cc3)[C@H](c3ccccc3)C[C@H]2[C@H]2C(=O)N(c3ccccc3)C(=O)[C@H]2C1	nt	nt	-7.2%	14.8%
CN(C)CCCn1c2c(c(SCC(=O)Nc3ccc4c(c3)OCCO4)nc1=O)CCCC2	nt	nt	-5.5%	-5.0%
O=C1NC[C@H](CCCCN2C[C@H](Cc3ccccc3)N(CC3CCCCC3)C(=O)C2=O)N(CCC2CCCCC2)C1=O	nt	nt	?	2.1%
CCCc1cc(C(=O)OCC(=O)NCCc2ccccc2)sc1C	nt	nt	-25.5%	0.3%
O=C(NCc1ccc(F)cc1)c1cc(C2CCCCN2C(=O)CCCc2ccccc2)on1 (stereo not drawn)	nt	nt	-19.5%	-9.1%
Cc1c([N+](=O)[O-])oc2c1C(=O)NCCC2	nt	nt	-8.4%	9.0%
Cc1cc(C(=O)N2CCC2(C)C(=O)NS(=O)(=O)c2cccc(Cl)c2)nn1C (stereo not drawn)	nt	nt	-1.9%	4.3%
CC1(C)C2CCC(CN)C1C2 (stereo not drawn)	nt	nt	-7.0%	16.1%
CC(C)(C)C(=O)Nc1ccc(N2CCN(C(=O)c3cccs3)CC2)cc1	nt	nt	-11.2%	-17.0%
CC(C)(C)S(=O)N1Cc2cc(C(=O)NCC(F)(F)F)nc(-c3cccc(-c4cccc(F)c4)c3)c2[C@@H]1CCO (stereo partly drawn)	nt	nt	-22.6%	1.2%
Cc1cccc(C)c1-n1nnnc1C(c1ccccc1OC(F)(F)F)N1CCN(C/C=C/c2ccccc2)CC1 (stereo not drawn)	nt	nt	0.0%	-18.0%
CCCC(=O)N1CCOCC1c1cc(C(=O)Nc2ccccc2)no1 (stereo not drawn)	nt	nt	-13.0%	2.6%
O=C1Nc2cnc(Cl)nc2Nc2ccccc21	nt	nt	-20.3%	-14.0%[18.4 µM]
CCc1ccc([C@H]2[C@@H]3C(=O)C[C@@H]4C(=O)N(C5CCCCC5)C(=O)[C@@H]4[C@@H]3CN2S(=O)(=O)c2ccc(C)cc2)cc1	nt	nt	-32.3%	-12.4%
OCOCCCn1c(C2CCCN2c2nc(-c3ccc(F)cc3)cs2)nc2cc(Cl)c(N3CCCCC3)cc21 (stereo not drawn)	nt	nt	-13.7%	1.9%
O=S1(=O)CC(N2CCCC2)CN1C1CCCC1 (stereo not drawn)	nt	nt	-6.9%	13.0%
OC[C@@H]1CN(CCN2CCOCC2)C[C@H](n2cnc3c(NC4CC4)ncnc32)O1	nt	nt	-22.1%	2.3%
Fc1cccc(Cc2c(-c3cccc(Br)c3)nc3ccc(Br)cn23)c1	nt	nt	18.2%	-17.4%
COc1ccc(Cc2c(-c3cccc(Cl)c3)nc3ccc(C)cn23)c(C)c1	nt	nt	29.6%	?
CCNC(=O)C1(C)CCN(C(=O)c2ccc(C(=O)OC)cc2)C1 (stereo not drawn)	nt	nt	?	-15.5%
O=C(NCc1ccco1)c1c(Cl)cccc1Cl	nt	nt	-3.5%	3.4%
Cc1ccc(C)c(C(O)c2ncc(-c3cccc4ccccc34)[nH]2)c1 (stereo not drawn)	nt	nt	-12.3%	0.4%
Cc1noc(C)c1NC(=O)N(C)C[C@@H]1OCc2cnnn2CCCC(=O)N([C@@H](C)CO)C[C@@H]1C	nt	nt	-16.0%	15.1%
O=C(COC(=O)c1cccc(S(=O)(=O)N2CCCCC2)c1)NCc1cccc(Cl)c1	nt	nt	0.0%	-7.3%
CN(C(=O)c1cccc(NC(=O)Cc2ccc(NC(=O)C3CCN(C(=O)C4CC4)CC3)cc2)c1)C1CCCCC1	nt	nt	-24.1%	3.2%
CC1(C)CC(=O)C=C(c2ccc(-c3cnn(Cc4ccccc4)c3)cc2)C1=O	nt	nt	16.8%	3.6%
COC(=O)CCCn1cc(CN2CC(N3CCN(Cc4ccccc4F)CC3)CS2(=O)=O)nn1 (stereo not drawn)	nt	nt	-11.5%	-12.8%
CCOC(=O)C1=CCC2C(=O)N(CC)C(=O)C12 (stereo not drawn)	nt	nt	0.0%	1.0%

# Screening data as filed in PubChem.
